Compound activity as filed in PubChem.
MT1-MMP promoter = MT1-MMP gene expression reporter suppression – cell-based, luciferase reporter, luminescence (AID 618); hit rate 0.62% among 87,000; MT1-MMP promoter luciferase reporter cells, luminescence; calls from a first round at 10 µM; hits with a dose series show EC50 in µM;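 active = over half of the reporter light lost at 10 µM or EC50 under 50 µM; inactive = the rest and hits that failed the dose series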;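 also: actives suppress MT1-MMP promoter-driven transcription so potencies describe inhibitors; HT1080 fibrosarcoma cells; overnight exposure; toxic or luciferase-blocking compounds were not removed from the actives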
Calls only; i = inactive. This is a subset; the hit share may differ from the screen's.

cpd	mol	MT1-MMP promoter
1	CC(=O)NCCN1C(=O)C2C3c4ccccc4C(c4ccccc43)C2C1=O (configuration not stated)	i
2	O=Cc1c(Sc2ccccc2)nc2ccccn2c1=O	i
3	Cc1ccccc1NCCNc1ccccc1C	i
4	O=C(Cn1c(=O)n(Cc2ccccc2)c(=O)c2ccccc21)NCc1ccco1	i
5	CCCCn1nnc(NC(=O)COc2ccc(Cl)c(C)c2)n1	i
6	Nc1c(C(=O)NCc2ccc3c(c2)OCO3)nnn1-c1ccc(OC(F)(F)F)cc1	i
7	COC(=O)[C@@]1(C)C=C[C@@H](Cc2ccccc2)N1C(C)=O	i
8	O=C(NNC(=O)c1ccc(SCC2CCCO2)c([N+](=O)[O-])c1)c1ccc(F)cc1 (configuration not stated)	i
9	CCOc1cccc2sc(NC(=O)CC)nc12	i
10	COc1ccc(C2=CC(=O)OC3(CCCC3)O2)cc1	i
11	O=C(N/N=C1\CCCc2ccccc21)c1cccc([N+](=O)[O-])c1	i
12	CN1CCN(c2nc(-c3ccccc3)cc(C(F)(F)F)n2)CC1	i
13	COC(=O)[C@@H]1C[C@H]1[C@@H](NC(=O)c1cc(C)nn1C)c1ccccc1	i
14	COc1ccc(C2=NOC(C(=O)NCCCn3ccnc3)C2)cc1 (configuration not stated)	i
15	O=C1c2ccccc2C(=O)N1CC1CCCO1 (configuration not stated)	i
16	O=C(COc1ccccc1)N/N=C/c1cc2c(cc1[N+](=O)[O-])OCO2	i
17	CCOc1nc(Nc2ccc(F)cc2)nc(N2CCN(c3ccc(OC)cc3)CC2)n1	i
18	CCCC[C@@H]1C[C@H]1C(NC(=O)c1ccccc1)c1ccc(C(F)(F)F)cc1 (some centres not stated)	i
19	Cc1ccccc1CN(c1ccc(C(=O)N2CCc3ccccc3C2)cc1)S(C)(=O)=O	i
20	Cc1cc(CNC(=O)[C@H]2C[C@@H]2[C@H](NP(=O)(c2ccccc2)c2ccccc2)c2ccccc2)nn1C	i
21	O=C(c1ccc2c(c1)N(Cc1ccccc1)C(=O)c1ccccc1S2)N1CCCC1	i
22	CCC1=C2CC[C@H]3C(=O)NC(=O)[C@H]3[C@H]2[C@@]2(Cc3ccccc3)C(=NCc3ccccc3)OC(=O)N2C1=O	i
23	O=C(Nc1ccc(F)cc1)N1CCN2C(=O)c3ccccc3C12c1ccccc1 (configuration not stated)	i
24	COC(=O)[C@@]1(Cc2ccc(F)cc2)[C@H]2c3cc(C(=O)N4CCCC4)n(CCc4ccc(OC)c(Br)c4)c3C[C@H]2CN1C(=O)c1ccccc1	i
25	CC1(C(=O)NCCc2c[nH]c3ccccc23)C=CCN1C(=O)c1ccccc1 (configuration not stated)	i
26	COc1cnc(N(C)C)nc1Sc1ccc(Cl)cc1	i
27	COc1ccc(F)cc1S(=O)(=O)N1CC(C)CC(C)C1 (configuration not stated)	i
28	COCCOCCn1cnc2ccccc21	i
29	Cc1ccc2c(c1)OC(=O)CC2c1ccccc1 (configuration not stated)	i
30	Cc1ccc(Nc2nc(C)cc(C)c2C(N)=O)cc1	i

Other records
cpd	mol	MT1-MMP promoter
31	FC(F)(F)c1ccc(C2[C@H]3CN(CC4CCCCC4)[C@H](c4ccccc4)C34CC2(c2cccnc2)C4)cc1 (some centres not stated)	i
32	Cc1ccc(C(C)C)c(OCC(=O)Nc2ccc3c(c2)nc(CN2CCCC2)n3C)c1	i
33	C#CCN(Cc1ccccc1)C(=O)/C=C/c1ccccc1	i
34	COc1nc(Oc2ccc(/C=N/O)cc2)nc(N(C)C)n1	i
35	CCOc1ccc(N2C(=O)/C(=C/c3cc(OC)c(OC)c(OC)c3)N(CC(=O)OC)C2=S)cc1	i
36	CC(C)CC(=O)N1CCC(N2CCN(c3ccccc3)CC2)CC1	i
37	CCc1ccccc1NC(=S)N(CCN(C)C)C(C)c1ccccn1 (configuration not stated)	i
38	CN(C)/C=C(\C#N)C(=O)c1cccc(Oc2ccc(Br)cc2)c1	i
39	Cc1cccc(NC(=S)NN2CCN(C)CC2)c1	i
40	COC(=O)CNC(=O)CNC(=O)Nc1ccccc1Cl	i
41	O=C1C2CC=CCC2C(=O)N1c1n[nH]c(CCc2ccccc2)n1 (configuration not stated)	i
42	COc1cc(Nc2nnc(C)s2)c(Cl)cc1Cl	i
43	Cc1cccc(NC(=O)CN(C)S(=O)(=O)c2ccc(Br)cc2)n1	i
44	O=C(NCCN1CCCCC1)c1cc(OCC(F)(F)F)ccc1OCC(F)(F)F	i
45	COC(=O)[C@@H]1C[C@@]2(O)[C@H](O)[C@H](O)[C@H](O)C[C@H]2N1C/C=C/c1ccccc1	i
46	COc1ccc(CCCc2nnc(SCC(=O)Nc3ccc(C)c(C)c3)o2)cc1	i
47	CCC1=C(OC(=O)N(CC)CC)N2C(=O)OC(=NCCc3c[nH]c4ccccc34)[C@]2(C)[C@H]2C1=CC[C@H]1C(=O)NC(=O)[C@H]12	i
48	Cc1ccc(C(=O)NNC(=O)c2ccc(SCC3CCCO3)c([N+](=O)[O-])c2)cc1 (configuration not stated)	i
49	CC(C)CNC(=O)c1ccccc1NC(=O)CSCc1ccccc1	i
50	Cc1ccc(SCCNC(=S)Nc2ccc(C)c(C)c2)cc1	i
51	CCCCN1C(=O)C2NN=C(C(=O)OC)C2C1=O (configuration not stated)	i
52	COC(=O)[C@@H]1C[C@H]2CC[C@H](O)C[C@H]2N1Cc1ccccc1OS(=O)(=O)c1ccc(C)cc1	i
53	OCC1CCCN(C(=S)NCCc2ccccc2)C1 (configuration not stated)	i
54	Cc1c(C(=O)C(C)C)n(C)c2ccccc12	i
55	Cc1ccc(C(=O)CN2/C(=C(\O)c3ccccc3)C(=O)c3ccccc3S2(=O)=O)c(C)c1	i
56	Cc1cc(C)cc(N=c2c([N+](=O)[O-])nn(-c3cccc(Cl)c3)n2O)c1	i
57	CCOC(=O)CC(NC(=O)c1ccco1)c1ccc(OC)cc1 (configuration not stated)	i
58	c1ccc(Cn2c(-c3cncs3)nc3ccccc32)cc1	i
59	COC(CNC(=O)Cn1ncc2ccsc2c1=O)OC	i
60	NC(=O)c1cccn1Cc1cccc(Cl)c1	i

(listing goes on)
cpd	mol	MT1-MMP promoter
61	C=C(CC1([C@@H](NP(=O)(c2ccccc2)c2ccccc2)[C@H]2C[C@@H]2CCCC)CC1)c1cccc(OC)c1	i
62	CC(=O)ON1C(C)(C)Cc2noc(N)c2C1(C)C	i
63	CC(=O)C1=C(C)NC(=O)NC1c1ccccc1OCC(=O)NCCc1ccccc1 (configuration not stated)	i
64	O=C(Cc1sc(-c2ccccc2)nc1-c1ccccc1)Nc1ccc(Cl)cc1	i
65	COc1ccc(-n2nc(C(=O)O)c3ccccc3c2=O)cc1	i
66	COC(=O)c1ccccc1NC1=C/C(=N\S(=O)(=O)c2cccs2)c2ccccc2C1=O	i
67	COc1ccc(C2N(C(=O)c3ccccc3)CCN2C(=O)c2ccc(C)cc2)cc1 (configuration not stated)	i
68	CCC1=C2CC[C@H]3C(=O)NC(=O)[C@H]3[C@H]2[C@@]2(C)C(=NCC3CC3)OC(=O)N2C1=O	i
69	C=CCc1ccc(OCCCOc2ccc(C)c(C)c2)c(OC)c1	i
70	CCc1c2c(nc3cccc(OC)c13)OC(CC)C2 (configuration not stated)	i
71	CCC1=C(OC(=O)N(CC)CC)N2C(=O)OC(=NCCc3c[nH]c4ccccc34)[C@]2(Cc2ccccc2)[C@H]2C1=CC[C@H]1C(=O)N(CC(=O)OC)C(=O)[C@H]12	i
72	CCC(C)(C(=O)NC1CCCC1)N(C(=O)CC1NC(=O)NC1=O)c1ccc(C)cc1 (configuration not stated)	i
73	O=C(CCN1C(=O)c2ccccc2C1=O)Oc1ccc2ccccc2c1	i
74	Cc1nc2ccc(NC(=O)N(C(C)C)C(C)C)cc2s1	i
75	CCc1c2c(nc3c(C(C)C)cccc13)-c1cccc(=O)n1C2	i
76	CN(C)/C=C(/C#N)C(=O)c1cccc(Oc2ccc(C(C)(C)C)cc2)c1	i
77	Cn1cc(CCC(=O)NCc2ccc3c(c2)OCO3)c2ccccc21	i
78	C=CCc1ccc(OCCOc2ccc(/C=N/n3cnnc3)cc2OCC)c(OC)c1	i
79	CCOC(=O)N1CCN(Cc2ccc(F)cc2F)CC1	i
80	Cc1nc2c(C(=O)N3CCN(C)CC3)cnn2c(C)c1Cc1ccc(Cl)cc1	i
81	Cc1ccc(S/C=C\C(=O)c2ccccc2)cc1	i
82	COC(=O)Cn1cnc2ccccc2c1=O	i
83	CCOC(=O)C1CCCN(S(=O)(=O)c2ccccc2)C1 (configuration not stated)	i
84	CC[C@H]1C2=C3C(CC[C@H]4C(OCc5ccc(F)cc5C(F)(F)F)OC[C@](C)([C@@H]34)N(C(=O)OC(C)(C)C)C2)C(COC(C)=O)C1COC(C)=O (some centres not stated)	i
85	CCC1=C2CC[C@H]3C(=O)N(CC)C(=O)[C@H]3[C@H]2[C@@]2(Cc3ccccc3)C(=O)N(Cc3ccccc3)C(=O)N2C1=O	i
86	COC(=O)c1ccc(C(/C=C/[C@@H](C)CO)NC(=O)OCc2ccccc2)cc1 (some centres not stated)	i
87	CCN1C(=O)/C(=C/c2cccs2)N(C)C1=S	i
88	COc1ccc(-c2nc(CSCC(=O)NC3CCCc4ccccc43)c(C)o2)cc1OC (configuration not stated)	i
89	CC(=O)N1[C@H](Cc2ccccc2)C=C[C@]1(C)C(=O)NCc1ccc(C)o1	i
90	Cc1nnc(SCC(=O)NCc2ccccc2)n1-c1ccccc1	i

Given with each value named: part of the list above.
66	COC(=O)c1ccccc1NC1=C/C(=N\S(=O)(=O)c2cccs2)c2ccccc2C1=O
  MT1-MMP promoter = i
67	COc1ccc(C2N(C(=O)c3ccccc3)CCN2C(=O)c2ccc(C)cc2)cc1 (configuration not stated)
  MT1-MMP promoter = i

New compounds follow:
cpd	mol	MT1-MMP promoter
91	CCN(CC)C(=O)Cn1c(=O)n(C)c2ccccc21	i
92	COC(=O)[C@@]1(Cc2ccccc2)[C@H]2c3cc(C(=O)N4CCCC4)n(Cc4ccc(S(C)(=O)=O)cc4)c3C[C@H]2CN1C(=O)c1ccccc1	i
93	COC(=O)Cn1c(C)nc2ccccc21	i
94	O=C(O)c1ccc(-n2nnnc2Oc2cccc3cccnc23)cc1	i
95	COC(=O)c1ccc(C(NC(=O)OCc2ccccc2)/C(C)=C/[C@@H](C)C(=O)N2CCN(C)CC2)cc1 (some centres not stated)	i
96	Cc1ccc(C)c(NC(=S)NCc2cccn2C)c1	i
97	Cc1ccc(CNC(=O)CCSCCC(=O)NCc2ccc(C)cc2)cc1	i
98	COc1cc(Cl)c(C)cc1NC(=O)CCCN1C(=O)CCC1=O	i
99	COc1cccc(-c2nc(-c3ccc(NC(=O)c4ccncc4)cc3)no2)c1	i
100	CCOC(=O)C1=C(C)NC2=C(C(=O)C(C(=O)OCC)C(c3cccc(OC)c3)C2)C1c1ccccn1 (configuration not stated)	i
101	COC(=O)c1ccc(C(NC(=O)OCc2ccccc2)/C(I)=C/[C@@H](C)C(=O)NCc2ccncc2)cc1 (some centres not stated)	i
102	O=C(OCCN1CCCCC1)c1ccc(Cl)cc1	i
103	CCNC(=O)CC1C(=O)N(c2ccccc2)C(=O)N1CCc1ccc(OC)c(OC)c1 (configuration not stated)	i
104	CNC(=O)C(=O)NCCc1ccc(Cl)cc1	i
105	CCN(CC)S(=O)(=O)c1ccc(OC)nc1	i
106	CNC(=O)c1sccc1SCc1ccc(Cl)cc1Cl	i
107	Cc1cccc(/C=C2\CS/C(=C\c3cccc(C)c3)C2=O)c1	i
108	Cn1c(N)cc(=O)n(Cc2ccccc2)c1=O	i
109	OCCN(CCO)CC(O)COc1ccc2c(c1)OCO2 (configuration not stated)	i
110	Cc1ccc(OCC(=O)Sc2ccc(C)cc2)cc1	i
111	COC(=O)[C@@]1(Cc2ccccc2)[C@H]2c3cc(C(=O)N4CCCC4)n(Cc4cc(F)cc5c4OCOC5)c3C[C@H]2CN1C(=O)c1ccccc1	i
112	CCOC(=O)C(=CNc1ccc(O)c(C(=O)OC)c1)C(=O)OCC	i
113	CCC1=C(OC(=O)N(CC)CC)N2C(=O)OC(=NCC(=O)OC)[C@]2(Cc2ccccc2)[C@H]2C1=CC[C@H]1C(=O)N(c3ccccc3)C(=O)[C@H]12	i
114	COC(CNC(=O)c1cccc2c1C(=O)N(Cc1cccnc1)C2)OC	i
115	CCN(CC)CCCNc1nc2cc(OC)c(OC)cc2c2nc(-c3ccccc3)nn12	i
116	Cc1ccc2ncnc(Nc3ccc(C)c(C)c3)c2c1	i
117	Cc1ccc(-n2c(C)cc(/C=c3/sc4nc5ccccc5n4c3=O)c2C)cc1	i
118	O=C(Oc1nsnc1N1CCOCC1)c1ccccc1	i
119	COc1ccc(-n2nc(C(=O)NCC(=O)NCc3ccco3)c3ccccc3c2=O)c(OC)c1	i
120	N#Cc1ccc(C23CC4(C2)[C@H](CN(Cc2ccc(-c5ccccc5)cc2)[C@@H]4c2ccccc2)C3c2ccc(C(F)(F)F)cc2)cc1 (some centres not stated)	i
121	CCC/C=C(\CCC)C(NS(=O)(=O)c1cccs1)c1ccc(C(=O)OC)cc1 (configuration not stated)	i
122	CCCCn1c(C)cc(C)c(S(=O)(=O)c2ccccc2C)c1=O	i
123	COC(=O)[C@@H]1C[C@@H]2CC[C@@H](O)C[C@@H]2N1CC1CCCCC1	i

Part of the list above, as labelled records:
96. Cc1ccc(C)c(NC(=S)NCc2cccn2C)c1
  MT1-MMP promoter: i
97. Cc1ccc(CNC(=O)CCSCCC(=O)NCc2ccc(C)cc2)cc1
  MT1-MMP promoter: i
98. COc1cc(Cl)c(C)cc1NC(=O)CCCN1C(=O)CCC1=O
  MT1-MMP promoter: i
99. COc1cccc(-c2nc(-c3ccc(NC(=O)c4ccncc4)cc3)no2)c1
  MT1-MMP promoter: i
